Sa growth inh – blocks Staphylococcus aureus growth. hit rate 0.53% among 170,000. AID 720641. relative growth, % (concentration not given with the values). S. aureus RN4220 growth, OD600, 20 h, 42 °C; stronger effect = lower value;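 active = growth at 42 °C up to 50% and 20 or more points under that at 30 °C, or under 10% at both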;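 note: 300 nL library stock went into each well; scaled to the means of positive and negative controls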
GIV-Gai inh – blocks GIV peptide binding to rat Galpha-i3. Galpha-i3/FITC-GIV peptide fluorescence polarization, 90 min; stronger effect = lower value; scaled: aluminum fluoride 0%, vehicle 100%. hit rate 0.42% among 210,000. P08753. percent of control (FP), % (test concentration not listed);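 active = replicate mean at 85% of control or lower, very high polarization wells dropped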;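 note: wells of about 15 µL received 100 nL stock; the first replicate is given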
Target sequence (P08753 whole entry, looked up): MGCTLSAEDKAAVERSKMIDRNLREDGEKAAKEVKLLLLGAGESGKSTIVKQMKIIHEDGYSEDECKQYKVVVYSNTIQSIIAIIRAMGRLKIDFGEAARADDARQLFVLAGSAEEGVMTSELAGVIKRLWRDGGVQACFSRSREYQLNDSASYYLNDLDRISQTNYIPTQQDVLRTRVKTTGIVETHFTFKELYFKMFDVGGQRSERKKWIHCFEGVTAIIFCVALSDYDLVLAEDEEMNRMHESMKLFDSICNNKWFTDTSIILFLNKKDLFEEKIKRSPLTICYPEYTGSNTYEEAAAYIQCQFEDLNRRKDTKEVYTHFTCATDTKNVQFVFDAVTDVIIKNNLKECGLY
HCMV UL50-53 inh – cytomegalovirus nuclear egress complex inhibition. hit rate 0.15% among 190,000. inhibition, % (test concentration not listed). HTRF UL50-UL53 interaction, normalized percent inhibition;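 active = both replicates at 50% or more, plus weaker picks with an unusually low signal ratio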;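 note: stock transfer was 100 nL into about 20 µL; 0% = negative control wells and 100% = wells with untagged competitor protein; inactives centre near -12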
Sa growth inh second temp – further read-out of Sa growth inh, marked with its call; relative growth, %; measured here: growth at 30 °C;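 optical density after 20 h as mean of two plates; 100% = untreated growth and lower means inhibition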
An asterisk follows results filed as active; nt = not tested or not shown; & = joins results of further samples.

SMILES | Sa growth inh | HCMV UL50-53 inh | GIV-Gai inh | Sa growth inh second temp
Cc1ccc(C)c(Nc2nnc(-n3nc(C)cc3C)c3ccccc23)c1 | 103 | -9 | 99 | 92
Cc1ccc(C)c(N2C(=O)c3cc4ccsc4n3CC2(C)C(=O)NC2CCCCC2)c1 (stereo unspecified) | nt | -12 | 107 | nt
COc1ccc(-c2cc(=O)c3cccc(C)c3o2)cc1 | 96 | 5 | nt | 88
COc1ccc2c(c1)-c1c(ssc1=S)C(C)(C)N2C(=O)CSc1nnc(C)s1 | nt | -103 | 101 | nt
O=S1(=O)C=CC(Sc2nc3ccccc3[nH]2)C1 (stereo unspecified) | 90 | 15 | 107 | 88
CCN1CCCC1CNC(=O)c1cnc(SC)nc1-c1ccccc1 (stereo unspecified) | 102 | -7 | 105 | 93
COc1cccc(C(c2sc3nc(-c4ccco4)nn3c2O)N2CCN(c3ccccc3F)CC2)c1 (stereo unspecified) | 86 | nt | 107 | 44
CC(=O)Nc1ccc(-n2cc(-c3ccccc3)nc2SCC(N)=O)cc1 | 119 | -15 | nt | 91
Cc1ccc(-n2nc(N3CCN(C(=O)c4cc5ccccc5[nH]4)CC3)ccc2=O)cc1C | nt | -30 | 107 | nt
CCOCCOC(=O)C1=C(C)NC(=O)NC1c1ccccc1OCc1ccccc1 (stereo unspecified) | nt | -8 | 109 | nt
Cc1ccccc1NC(=O)N1c2ccccc2CC1C (stereo unspecified) | 91 | 9 | 97 | 100
CN(C)CCOC(=O)c1ccc2c(c1)OCCO2 | 106 | -28 | 102 | 82
O=c1ccc(-c2ccc3c(c2)OCCO3)n[nH]1 | nt | -62 | 105 | nt
COC(=O)c1ccc(-c2ccc(/C=C3/C(=N)N4N=C(COc5ccccc5)SC4=NC3=O)o2)cc1 | 89 | -38 | 101 | 83
Cc1ccc2oc(=O)c3cc(C(=O)NCCCN4CCC(C)CC4)sc3c2c1 | nt | -35 | 103 | nt
Cc1nn(-c2ccccc2)c(C)c1/C=C/C(=O)OCc1nc2ccsc2c(=O)[nH]1 | 104 | -34 | nt | 75
CC(=O)N1CCc2c(sc3c2c(=O)n(-c2ccccc2)c(=O)n3CC(=O)c2ccc(F)cc2)C1 | 104 | -20 | 101 | 75
Cc1ccc2c(=O)cc(C(=O)Nc3ccc(S(=O)(=O)N(C)Cc4ccccc4)cc3)oc2c1 | 104 | 14 | 102 | 96
Cc1ccccc1Cn1cc(NC(=O)c2cc(-c3ccc(Cl)cc3)on2)cn1 | 105 | -4 | 103 | 106
Cc1ccc(N(C(=O)COc2c(C)cccc2C)S(=O)(=O)c2ccc(Cl)cc2)cc1 | 104 | -20 | nt | 84
CC(C)(C)NC(=O)Cn1c(=O)oc2ccccc21 | 97 | -5 | 103 | 88
Cc1ccc(C)c(N2CCN(S(=O)(=O)c3ccc(C(=O)N(C)C)s3)CC2)c1 | 86 | nt | 105 | 29
CSc1cccc(NC(=O)C(C)NS(=O)(=O)c2ccccc2)c1 (stereo unspecified) | 103 | -11 | 109 | 103
CC(C)OC(=O)/C(C#N)=C/c1ccc(-c2ccc(Cl)c(Cl)c2)o1 | 97 | -29 | 102 | 89
CCN1CCC(N(Cc2cccc(OC)c2)C(=O)Nc2ccc3c(c2)OCCO3)CC1 | 94 | -26 | 103 | 89
COc1cccc(NC(=O)C2CCC(CNS(=O)(=O)c3ccc4c(c3)CC(C)N4C(C)=O)CC2)c1 (stereo unspecified) | 108 | 2 | 105&108 | 80
c1cc2c(cc1-c1ccc(SCCN3CCCCC3)nn1)OCO2 | 82 | -13 | 101 | 90
CCCCn1c(CCC(=O)O)ccc1-c1ccccc1 | 101 | -12 | 107 | 86
O=C(C1CCCCN1S(=O)(=O)c1ccc(F)cc1)N1CCN(c2ccccc2F)CC1 (stereo unspecified) | 107 | -34 | 103&105 | 97
COc1ccc(OC)c(NC(=O)c2c(C(=O)Nc3ccccc3)sc3nc(C)cc(=O)n23)c1 | nt | -9 | 103 | nt
CCOc1ccc(CCNC(=O)c2cc3c(C)nccc3[nH]c2=O)cc1OCC | 90 | -12 | 99 | 105
O=S(=O)(c1ccc(-c2csc(=Nc3ccccc3)n2CCCO)cc1)N1CCOCC1 | 123 | 2 | 101 | 61
FC(F)(F)c1ccccc1NNC(=S)NCCN1CCOCC1 | 100 | -15 | nt | 84
Cc1ccc(C(=O)NCC(c2cccs2)S(=O)(=O)c2ccccc2)cc1C (stereo unspecified) | 100 | nt | 95 | 99
c1cn2cc(CSC3CCCC3)nc2s1 | 82 | -32 | nt | 82
CN(C)C(=O)COC(=O)c1ccc(S(=O)(=O)N2CCCC2)cc1 | 94 | -9 | nt | 97
CCc1nnc(SCC(=O)N2c3ccc(F)cc3CCC2C)n1C (stereo unspecified) | 111 | -8 | 104 | 75
Cc1cccc(NC(=O)Nc2ccc(F)cc2)n1 | 105 | -1 | 110 | 100
NNC(=O)c1ccc(Oc2ccc(C(=O)NN)cc2)cc1 | 69 | 3 | 100 | 90
N#CCn1c(COC(=O)c2ccc(S(=O)(=O)N3CCCCCC3)cc2)nc2ccccc2c1=O | 94 | -10 | nt | 93
CCN(Cc1ccccc1)C(=O)CCS(=O)(=O)c1ccc2c(c1)oc(=O)n2C | 95 | nt | 110 | 78
COc1cccc(N=Nc2c(O)[nH]c(=O)[nH]c2=O)c1 | 96 | -166 | 100 | 98
Cc1ccc2nc(-c3ccc(N(C)C)cc3)[nH]c2c1 | 80 | 4 | 100 | 32
O=C(N/N=C1\CCCc2ccccc21)C(O)c1ccccc1 (stereo unspecified) | 98 | -14 | 96 | 107
Cc1ccc(-n2c(SC/C(O)=C(\C#N)c3nc4ccccc4[nH]3)nc3ccccc3c2=O)cc1 | 95 | 0 | nt | 98
Cc1cc(NC(=O)/C=C\c2ccc3c(c2)OCO3)nc2c1c(=O)oc1ccccc12 | 103 | -21 | 114 | 64
CCc1ccc(-c2nn(-c3ccccc3)cc2/C=C2\SC(=S)NC2=O)cc1 | 133 | -31 | nt | 72
CC(C)c1ccc(CNc2nc3nc(CNc4ccc(Br)cc4)cc(=O)n3[nH]2)cc1 | nt | -12 | 104 | nt
CC(=O)N1C(=O)C2(Nc3ccccc3N2)c2ccccc21 | nt | -31 | 106 | nt
O=C(NCc1ccccc1)c1cccc(NC(=O)N2CCSc3ncccc32)c1 | 111 | nt | 107 | 87

Next section:
SMILES | Sa growth inh | HCMV UL50-53 inh | GIV-Gai inh | Sa growth inh second temp
Cc1nn(C)c(C)c1CCN(C)S(=O)(=O)c1cccs1 | nt | -9 | 104 | nt
CCOC(=O)C1=C(CC)Nc2ccccc2N=C1NC(=O)Cn1cnc2ccccc2c1=O | 94 | -12 | nt | 86
CCn1c(=O)c(N2CCC(C(=O)NCc3ccccc3OC)CC2)nc2cccnc21 | nt | 21 | 105 | nt
Cc1n[nH]c(C)c1S(=O)(=O)N1CCCC(C(=O)Nc2ccc(Cl)cc2)C1 (stereo unspecified) | 99 | 0 | 104 | 101
COc1ccc(C2CC(=O)C3=C(C2)NC(C)=C(C(=O)OCC(C)C)C3c2ccc(O)c(OC)c2)cc1 (stereo unspecified) | nt | -27 | 101 | nt
CCOc1ccc(NC(=O)c2cnc3sc(N4CCOCC4)nn3c2=O)cc1 | 90 | nt | 104 | 96
C=CCN(CC=C)c1cc(-c2ccccc2)nc2nc(-c3cccnc3)nn12 | nt | -12 | 121 | nt
CCN(CC)c1cc2c(cc1F)c(=O)c(S(=O)(=O)c1ccc(OC)cc1)cn2CC | 77 | nt | 111 | 80
COc1ccc(-c2nc3cc(NC(=O)c4ccc([N+](=O)[O-])cc4Cl)ccc3o2)cc1OC | nt | 6 | 111 | nt
COc1cccc(N2CCN(C(=O)CN(c3ccc(C)cc3)S(=O)(=O)c3c(C)n[nH]c3C)CC2)c1 | 110 | 3 | 96 | 82
Cc1[nH]c(C(=O)N2CCC(CC(=O)N3CCCC3)CC2)c(C)c1C(=O)OC(C)C | nt | -19 | 108 | nt
O=C(COc1ccc(Cl)cc1)Oc1cccc(-n2cnnn2)c1 | nt | -8 | 106 | nt
CCOC(=O)c1cn2nc(Oc3ccc(N4CCN(C(C)=O)CC4)cc3)ccc2n1 | 93 | -24 | 108 | 87
O=C(NCCCN1CCOCC1)C1CCN(c2ccc(Cl)cc2)C1=O (stereo unspecified) | nt | -26 | 101 | nt
Fc1ccccc1C(NCCc1ccc(Cl)cc1)c1nnc(-c2ccccc2)o1 (stereo unspecified) | 95 | -6 | 105 | 89
CCCCCN1C(C(=O)c2ccccc2)=C(OC(=O)CC)c2ccccc2S1(=O)=O | -0.5* | -16 | 94 | -0.5*
NC(=O)C1Cc2ccccc2CN1Cc1c(O)ccc2ccccc12 (stereo unspecified) | 90 | -48 | nt | 82
O=C(COC(=O)C1CC1)Nc1ccccc1Cl | 80 | -2 | nt | 88
COc1ccc2cc3cc(C(=O)NCCN4CCN(c5ccccc5F)CC4)oc3nc2c1 | 97 | nt | 103 | 82
N#CC1(N2CCNCC2)CCCCC1 | 102 | -7 | nt | 90
CCC1CCCCN1S(=O)(=O)c1ccc(NC(=O)c2cc(=O)c3ccccc3o2)cc1 (stereo unspecified) | 100 | -30 | 100 | 84
COc1ccc(OCCCC(=O)OCc2nc3ccccc3[nH]2)cc1 | 106 | -6 | nt | 97
COc1ccc(S(=O)Cc2ccc(C(=O)NC3CC3)o2)cc1 (stereo unspecified) | 102 | -4 | 107 | 101
Cc1ccc(NC(=O)CSc2nc3c(cnn3-c3ccc(S(N)(=O)=O)cc3)c(=O)[nH]2)cc1 | 97 | -10 | 102 | 83
Cc1cc(=O)n(Cc2ccccc2)c2c1c(C)nn2C | 75 | nt | 101 | 91
O=C(NCc1ccc(Cl)cc1)C1CCCN(S(=O)(=O)N2CCCCC2)C1 (stereo unspecified) | 105 | -29 | 103 | 91
CCC(=O)N(CCN1CCOCC1)Cc1cc2cc3c(cc2nc1Cl)OCO3 | 97 | -6 | 103 | 78
CC1CCN(S(=O)(=O)c2cc(C(=O)Nc3ccc(F)c(Cl)c3)n(C)c2)CC1 | nt | -23 | 109 | nt
COCCN(CCOC)C(=O)c1cc2cccnc2n(Cc2ccccc2)c1=O | nt | 9 | 104 | nt
COC(=O)CC1Oc2ccccc2-n2cc(-c3ccccc3)nc21 (stereo unspecified) | 110 | -5 | 108 | 81
CC(C)CSc1nc2c(cnn2-c2ccc(F)cc2)c(=O)[nH]1 | nt | -25 | 96 | nt
O=C(NCc1csc(-c2cccs2)n1)c1ccc2c(c1)CCO2 | 115 | -45 | 102 | 70
CCc1ccc(NC(=O)CCc2nc3cccnc3n2Cc2cccs2)cc1 | 105 | nt | 135 | 67
COc1ccc(C2CC(=O)Nc3c2c(=O)nc2c(C)cccn32)cc1 (stereo unspecified) | 101 | -16 | 102 | 83
O=C(Cn1nnc2ccccc21)N1CCN(S(=O)(=O)Cc2ccccc2)CC1 | 112 | 16 | nt | 106
CC(C)[N+](C)(CCOC(=O)C1c2ccccc2Oc2ccccc21)C(C)C | 95 | -37&-16&-42&-30 | 101 | 93
Cc1ccc(Cl)cc1N1CCN(C(=O)c2cccn3c(=O)c4c(C)c(C)sc4nc23)CC1 | nt | -4 | 109 | nt
O=C(Cc1nn[nH]n1)Nc1ccc(F)c(Cl)c1 | 100 | -18 | 97 | 83
O=C(NC(=S)NCCN1CCOCC1)c1cccc(C(F)(F)F)c1 | 87 | -1 | nt | 75
O=C(NC1CC1)C1CCN(c2cc(-c3ccc(F)cc3)ncn2)CC1 | nt | -14 | 101 | nt
O=S(=O)(NCCc1cn2ccccc2n1)c1ccccc1 | 92 | -34 | 105 | 84
O=C(NCCc1ccc(Cl)cc1)C(=O)NCC(c1ccco1)S(=O)(=O)c1cccs1 (stereo unspecified) | 123 | nt | 96 | 92
N#C/C(=C\c1cccc(Oc2ccccc2)c1)C(N)=O | 114 | 8 | nt | 97
O=C(c1ccccc1)N1c2ncnn2C2(CCCCC2)[C@@H]2CCCC[C@@H]21 | 102 | -28 | 102 | 85
Cc1cc(/C=C2\C(=O)NC(=S)N(c3ccccc3F)C2=O)c(C)n1-c1ccc(Cl)c(C(=O)O)c1 | 107 | nt | 96 | 83
O=C(CN1C(=O)c2ccccc2S1(=O)=O)Nc1ccccc1 | 121 | 11 | 104 | 96
O=C(OC1CCCCC1=O)c1ccc(-c2nc3ccccc3s2)s1 (stereo unspecified) | 82 | -57 | nt | 95
CCc1ccccc1Nc1nc2ccccc2n2cnnc12 | 108 | 10 | 108 | 99
O=C1C2=C/C(=C\N3CCCCC3)C(=O)N2c2ccccc21 | 90 | -86 | nt | 83
Cc1c2cnn(-c3ccccc3)c(=O)c2c(C)n1CCCC(=O)N(C)Cc1ccccc1 | 107 | nt | 101 | 87
Oc1ccccc1-c1nc2cnccn2c1Nc1ccccc1 | 83 | -16 | 105 | 61
CCOc1ccccc1NC(=O)C1CCN(S(=O)(=O)c2c(C)noc2/C=C/c2ccc(C)cc2)CC1 | 103 | nt | 105 | 96
Oc1cccc2ccc(Nc3ccccn3)nc12 | 77 | -27 | 97 | 77

Some of the entries so far, with two lines to a compound.
Results follow in this order: Sa growth inh | HCMV UL50-53 inh | GIV-Gai inh | Sa growth inh second temp
COC(=O)CC1Oc2ccccc2-n2cc(-c3ccccc3)nc21 (stereo unspecified)
  110 | -5 | 108 | 81
CC(C)CSc1nc2c(cnn2-c2ccc(F)cc2)c(=O)[nH]1
  nt | -25 | 96 | nt
O=C(NCc1csc(-c2cccs2)n1)c1ccc2c(c1)CCO2
  115 | -45 | 102 | 70
CCc1ccc(NC(=O)CCc2nc3cccnc3n2Cc2cccs2)cc1
  105 | nt | 135 | 67
COc1ccc(C2CC(=O)Nc3c2c(=O)nc2c(C)cccn32)cc1 (stereo unspecified)
  101 | -16 | 102 | 83
O=C(Cn1nnc2ccccc21)N1CCN(S(=O)(=O)Cc2ccccc2)CC1
  112 | 16 | nt | 106

From PubChem
